2A firefly = lowers the firefly signal of an FMDV 2A StopGo reporter; HEK cells with a luciferase reporter of 2A StopGo recoding; Potency, µM (titrated, usually from 57.5 µM), without a hit: at the top dose signal change, negative = less light; 0.23% of 120,000 active; active = well fitted falling curve with a large enough effect; inconclusive = small, poorly fitted or top-dose-only effect; inactive = no such curve, though single readings can be large or run the other way; further: nearly all actives have a fitted effect of over 60% in size; overnight with compound
2A Renilla = FMDV 2A StopGo reporter, Renilla signal. HEK cells with a luciferase reporter of 2A StopGo recoding. Potency, µM (doses to about 57.5 µM), inactives show at the highest dose signal change, negative = less light. 0.32% of 120,000 active. AID 1745857; active means well fitted falling curve with a large enough effect; inconclusive means small, poorly fitted or top-dose-only effect; inactive means no such curve, though single readings can be large or run the other way; further: nearly all actives have a fitted effect of over 55% in size; overnight with compound
Starred values were filed as active, the others as inactive; ? = inconclusive; & = joins results of further samples; [ ] = remark or other dose. On the % scale 0 is the no-effect control and ±100 the full control effect; potency means the concentration at half of the fitted maximal effect.

The opening six records as a preview:
SMILES | 2A firefly | 2A Renilla
C/C(=N/Nc1ccc(S(=O)(=O)Nc2ccccc2C(=O)O)cc1[N+](=O)[O-])c1ccco1 | 8% | 6%
CCCCOC(=O)COc1ccc2c(=O)c(Oc3ccc(OC)cc3)coc2c1 | -2% | -6%
O=C(NCc1ccccc1)c1ccccc1OCc1coc(-c2ccc(F)cc2)n1 | 0% | 7%
CCN(CCCNC(=O)Cn1ncc2c([nH]c3ccccc32)c1=O)c1cccc(C)c1 | -21% | -13%
COc1ccc2c(CNCc3ccc(C)o3)c(C(=O)O)n(Cc3ccccc3C)c2c1 | 15% | 42%[activator]
Cc1ccsc1CNC(=O)CCc1ccc(F)c(F)c1 | 59%[activator] | 44%[activator]

The listing, from the first entry:
SMILES | 2A firefly | 2A Renilla
C/C(=N/Nc1ccc(S(=O)(=O)Nc2ccccc2C(=O)O)cc1[N+](=O)[O-])c1ccco1 | 8% | 6%
CCCCOC(=O)COc1ccc2c(=O)c(Oc3ccc(OC)cc3)coc2c1 | -2% | -6%
O=C(NCc1ccccc1)c1ccccc1OCc1coc(-c2ccc(F)cc2)n1 | 0% | 7%
CCN(CCCNC(=O)Cn1ncc2c([nH]c3ccccc32)c1=O)c1cccc(C)c1 | -21% | -13%
COc1ccc2c(CNCc3ccc(C)o3)c(C(=O)O)n(Cc3ccccc3C)c2c1 | 15% | 42%[activator]
Cc1ccsc1CNC(=O)CCc1ccc(F)c(F)c1 | 59%[activator] | 44%[activator]
CCN1CCN(c2cc3c(cc2F)c(=O)c(S(=O)(=O)c2ccc(OC)cc2)cn3CC)CC1 | 34%[activator] | 45%[activator]
CC1(C)C(C=C(Cl)Cl)C1C(=O)OC(C#N)c1cccc(Oc2ccccc2)c1 (stereo not given) | -14%[11.5 µM] | 2%
CC(C)c1ccc2oc(=O)cc(CN3CCN(c4ccccc4)CC3)c2c1 | 1% | 2%
CCOc1ccc(S(=O)(=O)Nc2nc3ccccc3nc2N2CCCC2)cc1 | 1% | -3%
CCCCCCn1nc(C(=O)OCC(=O)Nc2ccccc2F)c2ccccc2c1=O | 10% | -2%
CCNc1nc2c(c(=O)[nH]c(=O)n2C)n1Cc1ccccc1Cl | 30% | 18%
COc1ccc(S(=O)(=O)N2CCC(C(=O)Nc3ccccc3C)CC2)c2cccnc12 | -13% | -8%
Cc1ccc(-n2ncc(C(=O)Nc3c(Cl)cccc3Cl)c2C2CCNCC2)cc1 | -27% | -23%
Cc1ccc(C)c(C(C)NC(=O)c2cccnc2)c1 (stereo not given) | -4% | 8%
CCOC(=O)N1CCN(Cc2nc3c(c(=O)[nH]c(=O)n3C)n2CCC(C)C)CC1 | -6% | -3%
Cc1ccc(/C=N\NC(=O)c2cccnc2)s1 | 98%[activator] | 11%
COc1ccc(NC2=NS(=O)(=O)C(c3ccc(C(C)C)cc3)=C2C)cc1Cl | -7% | -6%
O=C1CSC(c2ccc(OC3CCCC3)cc2)c2cn[nH]c2N1 (stereo not given) | 76%[activator] | -10%
Cc1cc(C)cc(Nc2nc(N)c(C(=O)c3ccc(Cl)cc3)s2)c1 | -3% | -14%
O=S(=O)(c1ccc(OC(F)(F)F)cc1)N1CCC(c2nnnn2-c2ccc(F)cc2)CC1 | 284%[activator] | 286%[activator]
CCOC(=O)c1c(-c2ccccc2)oc2ccc(N(C(C)=O)S(=O)(=O)c3cc(C)ccc3C)cc12 | -17% | 84%[activator]
Cn1c(=O)c2c(-c3ccccc3)n3c(c2n(C)c1=O)C(c1coc2ccccc2c1=O)OCC3 (stereo not given) | 11% | -11%
CC(C)(C)OC(=O)N1CCC(c2c(C(=O)NCc3ccccn3)cnn2-c2ccc(F)cc2)CC1 | -14% | 20%
COc1ccc(Cl)cc1N(CC(=O)Nc1ccccc1C(=O)N1CCOCC1)S(C)(=O)=O | 10% | 2%
Additional entries:
SMILES | 2A firefly | 2A Renilla
CCOC(=O)c1cnc2ccccc2c1N1CCC(CO)CC1 | -4% | -7%
CCOc1ccc(CNCc2c(C(=O)O)n(Cc3ccc(OC)cc3)c3ccccc23)cc1 | ? | 34%[activator]
CCN1C(=O)c2ccccc2S(=O)c2ccc(C(=O)NCc3cccnc3)cc21 (stereo not given) | 0% | 0%
COc1ccc(S(=O)(=O)NCC(c2ccco2)S(=O)(=O)c2cccs2)cc1C (stereo not given) | -28% | 161%[activator]
CN(Cc1ccccc1)C(=O)c1n[nH]c(=O)c2ccccc12 | -2% | -2%
CC(C)(CNC(=S)NCc1ccccc1)CNC(=S)NCc1ccccc1 | -14% | 245%[activator]
O=C(CSc1cccc2cccc(Cl)c12)NCc1ccco1 | 12% | 9%
Cc1ccc2oc(C(=O)NCC(c3cccs3)N3CCOCC3)c(C)c2c1 (stereo not given) | 18% | 3%
CCOC(=O)N1CCN(C(=O)CN(c2cccc(C)c2)S(=O)(=O)c2ccccc2)CC1 | 9% | 25%
CCCCN1C(=O)C(NC(=O)c2ccc(C(C)(C)C)cc2)(C(F)(F)F)C2=C1CC(C)(C)CC2=O (stereo not given) | -6% | -11%
CN(C)c1ccc(C=NC23CC4CC(CC(C4)C2)C3)cc1 | -1% | -3%
CCOC(=O)N1CCc2c(sc3c2c(=O)n(-c2ccc(Cl)cc2)c(=O)n3Cc2cccc(C)c2)C1 | 12% | 6%
CCOc1ccc(NC(=O)CSc2nccn2Cc2ccco2)cc1 | 84%[activator] | 4%
Cc1cc(C(=O)N(Cc2ccc(C(N)=O)cc2)C2CC2)sc1C | -1% | 18%
CC(NC(C)c1ccccc1F)C(=O)c1c[nH]c2ccccc12 (stereo not given) | -10% | -3%
COc1ccc(OC)c(CNC(=O)c2cc3ccc4cccnc4c3[nH]2)c1 | 31%[activator] | 38%[activator]
COC(=O)c1ccccc1NC(=O)Cn1c(=O)n(-c2ccc(C)cc2)c(=O)c2ccccc21 | 31%[activator] | 42%[activator]
CCOC1OC(=O)C(Cl)=C1Nc1cc(C)ccc1C (stereo not given) | 6% | 26%
Cc1ccc(C(=O)C(NC(=O)c2ccco2)Nc2cccc(C)c2)cc1 (stereo not given) | 136%[activator] | 58%[activator]
COc1ccc(-c2c(C)c3ccc(OC(=O)N(C)C)cc3oc2=O)cc1 | 115%[activator] | 0%
Cc1ccc(C)c(N2N=C(C(=O)Nc3ccc(S(=O)(=O)N4CCCCC4)cc3)CCC2=O)c1 | 6% | 17%
COC(=O)Cc1c(C)c2ccc3c(c2oc1=O)CN(Cc1ccc(Cl)cc1)CO3 | -2% | 25%
Cn1nnnc1-c1cccc(NC(=O)Cc2ccc(Cl)cc2Cl)c1 | -3% | 2%
CCN(CC)C(=O)Cn1cc(SCC(=O)Nc2cc(OC)ccc2OC)c2ccccc21 | -5% | 10%
O=C(COc1ncnc2sc3c(c12)CCC3)N1CCc2ccccc2C1 | -8% | -10%

Looked up above:
CCN1C(=O)c2ccccc2S(=O)c2ccc(C(=O)NCc3cccnc3)cc21 (stereo not given) in 2A Renilla → 0%
CCOc1ccc(NC(=O)CSc2nccn2Cc2ccco2)cc1 in 2A Renilla → 4%
Cc1ccc(C(=O)C(NC(=O)c2ccco2)Nc2cccc(C)c2)cc1 (stereo not given) in 2A firefly → 136%[activator]
Cn1nnnc1-c1cccc(NC(=O)Cc2ccc(Cl)cc2Cl)c1 in 2A firefly → -3%

Further entries
SMILES | 2A firefly | 2A Renilla
COc1ccc2c(c1)c(C(=O)OC(C)C(=O)NC(C)(C)C)c(C)n2C1CC1 (stereo not given) | -8% | -8%
CCn1nc(C(=O)NCC2COc3ccccc3O2)c2ccccc2c1=O (stereo not given) | 17% | 16%
COc1ccc(C)cc1NC(=O)CSc1nnc2c3cc(-c4ccc(Cl)cc4)nn3ccn12 | 130%[activator] | -2%
COc1ccccc1CNc1nc(-c2ccco2)nn1S(=O)(=O)c1ccccc1 | 67%[activator] | 87%[activator]
O=C(CN1C(=O)C2(SCC(=O)N2c2ccc(Cl)cc2)c2ccccc21)NCCc1ccccc1 (stereo not given) | -30% | 2%
O=S(=O)(c1ccc2nc(NCc3ccccc3Cl)ccc2c1)N1CCCCC1 | 13% | -2%
COc1cc(C)c(COc2ccc(C#N)cc2)cc1OC | -9% | -19%
COc1cc(NC(=O)c2ccc(-c3nc(COc4ccccc4)c(C)o3)cc2)cc(OC)c1 | ? | ?
O=C(NCc1ccccc1)C1CCC(CNS(=O)(=O)c2ccc(Br)s2)CC1 (stereo not given) | -11% | 1%
CCc1cccc(C)c1NC(=O)CN(C)Cc1ccc(C(F)(F)F)cc1 | -7% | -1%
O=C(Cn1c(-c2cccs2)cc2ccccc21)NCCCN1CCN(c2ccccc2F)CC1 | 16% | 12%
COc1ccc(CNC(=O)C(=O)NCC(c2cccs2)S(=O)(=O)c2ccc(C)cc2)cc1 (stereo not given) | -13% | -5%
Cn1c(SCc2cc(-c3cccs3)on2)nnc1-c1ccncc1 | 49%[activator] | 12%
Cc1cc(C)c2c(=O)[nH]c(SC(C)C(=O)Nc3ccc(Cl)cc3F)nc2n1 (stereo not given) | 20% | 10%
Cc1nc2c(C(=O)NC3CCCC3)cnn2c(C)c1Cc1ccccc1Cl | 2% | -6%
CC(C)(C)c1ccc(-c2cc(C(=O)O)c3cc(Br)ccc3n2)cc1 | 0% | ?
CCOc1ccc(-c2cccc(NS(=O)(=O)c3ccc(Cl)s3)c2)nn1 | 2% | 171%[activator]
CN(CC(=O)NC1CC1)c1nc(-c2cccs2)nc2ccccc12 | 0% | 16%
Cc1cc(S(=O)(=O)NCC(C)O)c(C)cc1Br (stereo not given) | 33%[activator] | 380%[activator]
CN(C)C(=O)CN1CCN(C(C(=O)O)c2cn(CC(=O)O)c3cc(Cl)ccc23)CC1 (stereo not given) | -6% | -8%
Cc1ccc(-c2c(C)nn3c2NC(=O)CCC3=O)cc1S(=O)(=O)NCCc1ccc(Cl)cc1 | -6% | 270%[activator]
O=C(c1cnc(N2CCCCC2)c2ccccc12)N1CCN(c2ccccn2)CC1 | -14% | 26%
COc1cc([N+](=O)[O-])ccc1NC(=O)c1nc2ccccc2n(C)c1=O | 35%[activator] | -4%
COc1ccc2c(C)c(CC(=O)NCCCn3ccnc3)c(=O)oc2c1OC | 36%[activator] | 11%
CCC(=O)Oc1cc2c(c3oc(=O)cc(-c4ccccc4)c13)CCC(C)(C)O2 | 4% | 10%

The final 3 compounds of the section before open the next one.
SMILES | 2A firefly | 2A Renilla
COc1cc([N+](=O)[O-])ccc1NC(=O)c1nc2ccccc2n(C)c1=O | 35%[activator] | -4%
COc1ccc2c(C)c(CC(=O)NCCCn3ccnc3)c(=O)oc2c1OC | 36%[activator] | 11%
CCC(=O)Oc1cc2c(c3oc(=O)cc(-c4ccccc4)c13)CCC(C)(C)O2 | 4% | 10%
CCOC(=O)c1ccccc1NC(=O)Nc1cccc(Cl)c1 | 70%[activator] | 15%
Cc1ccc(-c2nc(CSc3nnnn3CC(C)C)co2)c(C)c1 | 9% | 5%
CCCCn1c(N)c(N(CC)C(=O)C(c2ccccc2)c2ccccc2)c(=O)[nH]c1=O | 2% | 0%
Cc1ccc(S(=O)(=O)NCCO)c2ccccc12 | -3% | 132%[activator]
COc1ccccc1Nc1sc(C(=O)c2ccc3c(c2)OCO3)c(N)c1S(=O)(=O)c1ccccc1 | 6% | 46%[activator]
CC(=O)c1ccc(NC(=O)c2cnn(-c3cccc(C)c3)c2-n2cccc2)cc1 | 2% | 12%
Cc1ccccc1CN1CCCN(CC(=O)Nc2ccc3c(c2)OCCO3)S1(=O)=O | -18% | 24%
CCN(c1ccccc1C)S(=O)(=O)c1nnc(NC(=O)c2ccco2)s1 | -8% | 45%[activator]
CC[N+]1(CC)CCC(OC(=O)C(O)(c2ccccc2)c2ccccc2)C1 (stereo not given) | 1%[11.5 µM] | -15%
Cc1ccc(NC(=O)CSc2nnc(-c3ccc([N+](=O)[O-])cc3)o2)c(C)c1 | -10% | -16%
COc1ccc(CNC(=O)c2c(O)nc3c(C)cccn3c2=O)cc1 | 0% | -10%
O=C(CN1CCN(C(=O)CCc2ncc(-c3ccc(Cl)cc3)o2)CC1)Nc1cccc(F)c1 | ? | ?
Cc1ccc(-c2[nH]c3[nH]c(=O)[nH]c(=O)c3c2-c2c(-n3cccc3)[nH]c(=O)[nH]c2=O)cc1 | 1% | -8%
CCc1ccc(NC(=O)C2CCN(c3ccc(Sc4ccc(C)cc4)nn3)CC2)cc1 | -1% | 3%
C=C(C)COc1cc(Cl)ccc1C(N)=O | 10% | 8%
O=C(NCCCc1ccccc1)c1nn(-c2ccccc2F)nc1CO | ? | ?
COc1ccc(-c2cc(C(=O)NC3CCN(C(C)C)CC3)c3ccccc3n2)cc1OC | 0% | -6%
CC1=NS(=O)(=O)NC(C)=C1CCC(=O)Nc1ccc(C(C)(C)C)cc1 | -5% | -11%
O=C(CSc1nnc2ccc(-c3ccco3)nn12)N1CCOCC1 | 0% | 2%
CNc1nc(Oc2ccc(=O)[nH]n2)nc(N2CCOCC2)n1 | -12% | -4%
CCCN(CCC)CCCNC(=O)C1CCCN(S(=O)(=O)c2cccc3nsnc23)C1 (stereo not given) | -14% | -3%
O=C(Nc1c(C(=O)N2CCN(c3ccccc3F)CC2)oc2ccccc12)c1ccco1 | 16%&15% | 336%[activator]
CCc1nnc(NC(=O)CSc2nccn2-c2ccccc2)s1 | 0% | 11%

Source: PubChem

This is a subset. The share of hits here may be higher or lower than overall.
